Bioassay records from PubChem.
LT uptake inh: inhibitors of anthrax lethal toxin internalization | Cells, anthrax lethal toxin internalization, FRET ratio (460/530) | Potency, µM (series often up to 40 µM), without a hit: at the top dose activity change, negative = inhibition, usual class: inhibitors | 0.67% of 70,000 active | AID 912; active = well fitted falling ratio curve with the 530 nm signal flat; inconclusive = other ratio curves, or a change in one channel alone; inactive = flat curves in the ratio and both channels; the % refers to the ratio; further: on the % scale 0 is the no-effect control and ±100 the full control effect; nearly all actives have a fitted effect of over 50% in size; tested in ME-180 cells; beta-lactamase reporter
SmPrx2 inh: blocks S. mansoni peroxiredoxin 2 enzymatic activity; Potency, µM; S. mansoni Prx2 activity coupled to TGR/GSH (TGR is thioredoxin glutathione reductase), NADPH fluorescence loss, qHTS; some inactives read as strong as hits; 0.07% of 65,000 active; AID 448; active means full or partial inhibition curve with a strong effect at the top dose; inconclusive means weaker partial or single-point curve; inactive means no accepted curve; further: series up to 57 µM; many of its hits are not listed in these tables
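Enzyme mix: 100 uM NADPH, 25 nM TGR, 700 uM GSH, 50 nM Prx2 in 100 mM phosphate pH 7.4, 10 mM EDTA, 0.01% Tween-20. 15 min RT with compound; NADPH/GSH added, H2O2 starts reaction; NADPH fluorescence read 8 min.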
* = called active by the depositor; ? = inconclusive; · = not tested or not shown; & = joins results of further samples; [ ] = another dose, or the depositor's remark. Potency means the concentration at half of the fitted maximal effect. An excerpt; count on the stated rates, not on these rows.

smiles | SmPrx2 inh | LT uptake inh
COC(=O)c1cc2ccsc2n1CC(=O)N1CCCc2ccccc21 | >57 | ?
O=C(CSc1ncn(-c2ccccc2)n1)Nc1nc2ccccc2s1 | >57 | -3.2%
Cc1cc2cc(CCNC(=O)c3ccc(Br)o3)c(=O)[nH]c2cc1C | >57 | -11.6%
O=C(c1cc(C(F)(F)F)cc(C(F)(F)F)c1)N1CCC[C@@]2(CCN(c3ccccn3)C2)C1 | · | -5.0%
CN1Cc2c(N)cccc2[C@H](c2ccccc2)C1 | >57&>25.6 | 6.1%[3.58 µM]
c1ccc(-n2nnnc2-n2ccnc2)cc1 | · | -6.5%
CC(=O)NCC(=O)OCC(=O)c1ccc(C)cc1 | · | 8.4%
COc1ccc(S(=O)(=O)NCC(=O)N(CC(=O)NCC2CCCO2)c2c(C)cccc2C)cc1 (centres undefined) | >57 | 2.3%
CC(O)Cc1nsc(NC(=O)c2ccc(Br)o2)n1 (centres undefined) | >57 | 22.3%
COc1cccc2cc(C(C)N(CCCN3CCOCC3)C(=O)Nc3ccc(Cl)cc3)oc12 (centres undefined) | >57 | 5.6%
CCOc1cc(CNC(=O)CN2C(=O)c3ccccc3S2(=O)=O)ccc1OC | >57 | 18.0%
Cc1ccc(-n2nnc3c(=O)n(CC(=O)N4CCCC4)cnc32)cc1 | >57 | 3.5%
O=C(CN(Cc1ccco1)C(=O)CNS(=O)(=O)c1ccccc1)NC1CCCCC1 | >57 | 4.3%
FC(F)(F)C1CC(c2cccs2)Nc2ncnn21 (centres undefined) | · | 0.2%
CCCc1oc2c(c(=O)c1CC)C(=O)CC(C)(C)C2 | >57 | -16.3%
Cc1ccccc1Cn1cc(NC(=O)c2cc(-c3cccs3)on2)cn1 | >57 | -5.6%
CS(=O)(=O)N(CC(N)=O)c1ccc2c(c1)OCO2 | >57 | 0.0%
O=C(Cn1cccc1C(=O)c1ccccc1)NCc1ccco1 | >57 | -4.2%
COCCOC(=O)C(C#N)c1nc2ccccc2nc1N1CCCC1 (centres undefined) | · | 7.2%
CCC(C(=O)NC1CCCC1)N(Cc1ccco1)C(=O)Cn1nnc(-c2ccc(C)cc2)n1 (centres undefined) | >57 | -5.9%

smiles | SmPrx2 inh | LT uptake inh
O=C(c1cc2ccccn2n1)N1CCC2(CC1)OCCO2 | >57 | -1.5%
COc1ccc(C(=O)N2CCC3(CC2)CN(c2ccncc2)C3)cc1 | >11.4 | 0.4%
Cn1c(=O)[nH]c(=O)c2c1nc(CN1CCN(c3ccccc3F)CC1)n2CC(N)=O | >57 | 0.5%
CN(C)c1nc(N)nc(-c2nc3ccccc3s2)n1 | · | -14.4%
CC(=O)Nc1cccc(NC(=O)CSc2nnnn2C(C)C)c1 | >57 | 6.2%
CCCCCCN(C(=O)CCCCCN1C(=O)NC(c2ccc(C(C)(C)C)cc2)C(C(=O)OCc2ccccc2)=C1C)C(C(=O)NCCCC)c1ccc(OCC(=O)OC)c(C(=O)OC)c1 (centres undefined) | · | ?
Cc1cc(Nc2c(C)cccc2C)n2nc(C)nc2n1 | >57 | ?
O=S1(=O)CC(O)C(NCc2ccco2)C1 (centres undefined) | >57 | -0.2%
COc1ccc(-c2nc(N)ncc2-c2csc(C)n2)c(O)c1 | >57 | 13.0%
Brc1cccc(C2CC(c3ccccc3)n3nnnc3N2)c1 (centres undefined) | >57 | 15.3%
COC(=O)N1CCC2(CC1)CN(c1ccncc1)C2 | >57 | -7.1%
CCOc1cc(CNc2ccccc2SC)ccc1O | · | 3.2%
CN(C)S(=O)(=O)c1cc(S(=O)(=O)N(C)C)c(Cl)cc1N | · | -6.3%
Cc1ccc(C)c(N2CCN(CC(=O)Nc3ccc4[nH]c(=O)[nH]c4c3)CC2)c1 | >57 | -11.7%
Cc1cc(C)cc(NC(=O)C2CCN(c3nccs3)CC2)c1 | >57 | 2.5%
O=C(C1CCN(c2nnnn2-c2ccccc2)CC1)N1CCN(c2ccccc2)CC1 | >57 | 0.0%
NC(=O)c1sc2nc(N3CCCCC3)c3c(c2c1N)CCCC3 | >57 | -27.8%
CCCCC(=O)Nc1ccc(NC(=O)c2cccnc2)cn1 | >57 | -7.4%
COc1ccc(N2C(=O)CC(n3c(CCCCO)nc4ccccc43)C2=O)cc1 (centres undefined) | >57 | -9.7%
CCC1(C(=O)O)NC(c2cc(OC)ccc2O)C2C(=O)N(Cc3ccccc3)C(=O)C21 (centres undefined) | >57 | -8.7%

smiles | SmPrx2 inh | LT uptake inh
COC(=O)C1CCN(c2cc(=O)n(-c3ccccc3Cl)c(=O)[nH]2)CC1 | >57 | 0.3%
COC(=O)C1=C(C)N(Cc2ccccc2)c2c(C(=O)OC)c(C(=O)OC)c(C(=O)OC)c(=O)n2C1c1ccccc1 (centres undefined) | · | 5.3%&-12.7%[8 µM]
Cc1cc(C)n(CCCNC(=O)c2ccc3c(c2)NC(=O)CS3)n1 | >57 | -6.5%
CCOC(=O)N1CCC(NC(=O)CCc2c(C)nc3ncnn3c2C)CC1 | >57 | -15.3%
Cc1cccc(C)c1NC(=O)CCCSc1nnc(-c2ccco2)o1 | >57 | -7.1%
O=C(Cc1cccs1)N1CCN(c2nc(-c3ccc(Cl)cc3)cs2)CC1 | >57 | ?
CCCn1c(=O)c2ccccc2n2c(SCCOc3ccccc3F)nnc12 | >57 | 3.4%
COc1ccccc1Nc1nc(NCCO)c2ccccc2n1 | >57 | -4.8%
CCOc1ccc(-c2nnn(CC(=O)N3CCN(c4ccc(OC)cc4)CC3)n2)cc1OCC | >57 | -22.8%
CCOC(=O)c1ccc(NS(=O)(=O)c2cc(-c3nnnn3C(C)C)ccc2OC)cc1 | · | ?
Cc1cc(C)nc(Nc2nc3ccccc3[nH]2)n1 | >57 | -10.0%
C=CCn1c(COc2cccc3cccnc23)nnc1SCC(=O)O | >57 | -5.3%
CCOC(=O)C1=C(C)NC(=O)NC1c1ccc(Br)s1 (centres undefined) | · | 16.5%
CSc1nnnn1-c1cccc(O)c1 | >57 | 11.4%
Cc1ccccc1CS(=O)(=O)Cc1ccc(C(=O)NCCCN2CCCC2=O)o1 | >57 | 19.1%
c1ccc(-n2cnc3cc(NCc4ccncc4)ccc32)cc1 | >57 | ?
O=C1CC(N2CCN(C/C=C/c3ccccc3)CC2)C(=O)N1CCc1ccccc1 (centres undefined) | · | -18.4%
Cc1cc(C)cc(OCC(O)CN2C(=O)NC(C)(C)C2=O)c1 (centres undefined) | >57 | 4.2%
Cc1cc(NC(=O)CSc2ncnc3ccccc23)no1 | >57 | -2.1%
c1ccc(Nc2nc3ccccc3n3cnnc23)cc1 | · | 0.4%

smiles | SmPrx2 inh | LT uptake inh
CCOC(=O)N1CCN(C2CC(=O)N(c3ccccc3)C2=O)CC1 (centres undefined) | · | -1.0%
Cc1cccc(-c2c3c(=O)n(C)c(=O)n(C)c3c3c(C)cc(C)nn23)c1 | >57 | 4.5%
CC(=O)N1CCCc2cc(S(=O)(=O)N(CC(C)C)CC(C)C)ccc21 | >57 | 11.6%
CCOC(=O)CCCNC(=O)CCNC(=O)c1ccc(OCC)cc1 | · | -5.1%
Cc1ccc(Cl)cc1N1CCN(S(=O)(=O)c2ccc3c(c2)oc(=O)n3C)CC1 | >57 | -15.2%
N#Cc1c(N)nc2c(c1-c1cccnc1)CCCCC2 | · | -2.7%
COC(=O)NC(CC(C)=O)c1ccc(F)cc1 (centres undefined) | · | -1.3%[8 µM]
O=C(C1COc2ccccc2O1)N1CCN(Cc2ccc3c(c2)OCO3)CC1 (centres undefined) | · | 3.8%
CC(=O)N(Cc1cc2ccc(C)c(C)c2n2nnnc12)C1CCCC1 | >57 | 6.2%
COc1ccc2nc(NC(=O)C3CCCN3S(=O)(=O)c3ccc(C)cc3)sc2c1 (centres undefined) | >57 | ?
O=C(O)C1CC(=O)N(c2ccc(F)cc2)C1 (centres undefined) | >57 | -3.1%
COc1ccc(C(C(=O)NC2CCCCC2)N2CCC3(CC2)OCCO3)cc1 (centres undefined) | >57 | -10.3%
COC(=O)c1sc(S(=O)(=O)N2CCC(C)CC2)c(C(=O)OC)c1C | >57 | -22.2%
CCCOc1ccc2c3c(c(=O)oc2c1OCCC)CCC3 | >57 | -31.6%
O=C1CC(Cc2ccccc2)C(=O)N1Cc1ccco1 (centres undefined) | · | 6.2%
Cc1cccc(NC2=NCCCS2)c1C | >57 | 6.5%
O=C(O)Cn1nc2ccccc2n1 | >57 | 6.7%
COC(=O)C1=C(C)NC(C)=C(C(=O)OC)C1c1ccccn1 | >57 | -0.1%
O=S(=O)(c1ccc(S(=O)(=O)N(Cc2cccs2)CC2CCCO2)cc1)N1CCCCC1 (centres undefined) | >57 | -2.5%
COc1ccc(CCNC(=O)CSc2nnc(Cc3csc(N)n3)n2C)cc1OC | >57 | 8.2%

Compound profiles, as listed above. Values in the order: SmPrx2 inh, LT uptake inh
`Cc1cccc(-c2c3c(=O)n(C)c(=O)n(C)c3c3c(C)cc(C)nn23)c1` as listed: >57, 4.5%
`COC(=O)NC(CC(C)=O)c1ccc(F)cc1` (centres undefined) as listed: ·, -1.3%[8 µM]
`O=C(O)C1CC(=O)N(c2ccc(F)cc2)C1` (centres undefined) as listed: >57, -3.1%

(next part)
smiles | SmPrx2 inh | LT uptake inh
O=C(O)c1cccc(N2C(=O)c3cccnc3C2=O)c1 | >57 | 4.5%
CN(C)c1nc(-c2cccc(NS(C)(=O)=O)c2)nc2ccccc12 | >57 | -7.0%
COc1ccc(CCNC2CC(=O)N(CCc3ccc(OC)c(OC)c3)C2=O)cc1OC (centres undefined) | >57 | 0.9%
COc1ccc(N2C(=O)CC(Sc3nc(C)c4c(n3)CCCC4)C2=O)cc1 (centres undefined) | >57 | -4.3%
CC(=O)C(Sc1nc(-c2ccc(F)cc2)nc2c1c(=O)n(C)c(=O)n2C)C(C)=O | >57 | -7.2%
COc1ccc(-n2c(=O)c(-c3cc(F)cc(F)c3)nc3cnc(N4CCNCC4)nc32)cc1 | >57 | ?
CC[C@@H]1Cn2c(c3nc(-c4ccccc4)nc-3n(C)c2=O)N1 | · | -8.5%
CCOc1ccc(N(CC(=O)Nc2cccc(Cl)c2)S(=O)(=O)c2c(C)noc2C)cc1 | >57 | ?
Cn1cc(C(=O)OCC2CCN(CCNS(C)(=O)=O)CC2)c2ccccc21 | >57&>57 | -10.3%&1.4%
COCCOC(=O)c1c(C)oc2ccc(NS(=O)(=O)c3ccccc3)cc12 | >57 | -9.5%
Cn1c(CCNC(=O)c2ccco2)nc2cc(NC(=O)NC3CCCCC3)ccc21 | >57 | -8.7%
CCN(CC)C(=O)CSc1nnc(-c2cnccn2)n1-c1ccccc1 | >57 | -4.5%
CCc1nc(-c2ccccc2O)n(-c2ccccc2)n1 | >57 | -7.8%
CCOC(=O)CNS(=O)(=O)c1ccc(S(=O)(=O)N2CCCC2)cc1 | >57 | 5.8%
CN(C)CCCCN1CCc2c(n(C)c3ccccc23)C1=O | >57 | -3.6%[8 µM]
COc1cc(OC)cc(C(C(=O)NCc2ccccc2)N(Cc2ccco2)C(=O)c2ccno2)c1 (centres undefined) | >57 | -22.4%
Cn1c(SCC(=O)Nc2cc(=O)n(C)c(=O)n2C)nnc1C12CC3CC(CC(C3)C1)C2 | · | -11.9%
COc1ccc(CNC(=O)Nc2ccc(C)cc2)cc1 | >57 | -0.1%
COc1ccccc1C1C(C(=O)c2cc3ccccc3o2)=C(O)C(=O)N1CCN1CCOCC1 (centres undefined) | >57 | ·
Cc1cc(C)n2cc(CSc3nnnn3-c3ccccc3)nc2n1 | >57 | ·

smiles | SmPrx2 inh | LT uptake inh
Clc1ccc(CO[C@@H](Cn2ccnc2)c2ccc(Cl)cc2Cl)cc1 | >25.6 | 2.9%[3.58 µM]
COC(=O)/C=C\C(=O)N[C@@H]1CC[C@@]2(O)[C@H]3Cc4ccc(O)c5c4[C@@]2(CCN3CC2CC2)[C@@H]1O5 | >57 | ?
CNc1nc(-c2ccccc2C)nc2ccccc12 | · | 5.7%
CC1CCc2nn(CC(=O)NCCCN3CCCC3=O)cc2C1 (centres undefined) | >57 | 0.0%
Cc1c(Br)cc(C(=O)O)c(C)c1C | >57 | 2.9%
CCn1c(SCC(=O)c2cccs2)nnc1-c1cccs1 | >57 | ?
Cc1occc1-c1nnc(SCc2nnc(-c3ccc(Cl)cc3)o2)n1C | >57 | -13.7%
Cc1cn(C(=O)CN2C(=O)c3ccccc3C2=O)c(C)n1 | >57 | 10.1%
CCSc1nnc(NC(=O)C(Cc2ccccc2)n2cccc2)s1 (centres undefined) | >57 | -14.9%
C/C(=N\[N+](C)(C)C)c1ccc(C)c(C)c1 | >57 | 5.5%[8 µM]
N#Cc1c2n(c(=S)n(-c3ccccn3)c1=O)CCCCC2 | >57 | -3.7%
Cc1cc(-c2cccs2)c2c(n1)sc1c(=O)[nH]c(=O)[nH]c12 | >57 | -9.1%
O=C(Nc1cccc(F)c1)N1CCC2(CC1)CCN(C(=O)c1csnn1)CC2 | >11.4 | 4.8%
O=C1c2ccccc2S(=O)(=O)N1Cc1cccc(S(=O)(=O)N2CCOCC2)c1 | >57 | -2.3%
COc1ccccc1C(=O)Nc1ccc2c(c1)nc1n2CCSC1 | >57 | ·
C/C(=N/Nc1nc(C)cc(=O)[nH]1)C(=O)O | >57 | -4.9%[8 µM]
CN1CCN(C(=O)C2CC(=O)N(c3ccc(F)c(Cl)c3)C2)CC1 (centres undefined) | >57 | -1.1%
